Compound activity: PubChem BioAssay, National Center for Advancing Translational Sciences (NCATS)
VACV mCherry inh – vaccinia inhibition (mCherry reporter); Vaccinia virus mCherry reporter infection, fluorescence; about a quarter of the inactives have no number; Potency, µM (top dose mostly 36.5 µM), inactives show at the highest dose activity change, negative = inhibition, usual class: inhibitors; 310,000 tested, 0.63% active; AID 720579; active = well fitted inhibition curve with a large enough effect; inconclusive = small, poorly fitted or top-dose-only effect; inactive = no such curve, though single readings can be large or run the other way; tested in A549 cells; note: nearly all actives have a fitted effect of over 35% in size; inactives centre near -10
VACV Venus inh – vaccinia inhibition (Venus reporter). Vaccinia virus Venus reporter expression, fluorescence. Potency, µM (top dose mostly 36.5 µM), inactives show top-dose activity change, negative = inhibition, usual class: inhibitors. 330,000 tested, 0.46% active. AID 720580; active means well fitted inhibition curve with a large enough effect; inconclusive means small, poorly fitted or top-dose-only effect; inactive means no such curve, though single readings can be large or run the other way; tested in A549 cells; note: nearly all actives have a fitted effect of over 30% in size; inactives centre near -10
* marks the source's active call; other numbers are inactive results; i = inactive; ? = inconclusive; nt = not tested or not shown; & = joins results of further samples; [ ] = remark or other dose. % is set by controls: 0 for no effect and ±100 for the full control effect; potency is the fitted concentration of half-maximal effect.

SMILES	VACV mCherry inh	VACV Venus inh
O=C(Nc1ccccc1F)Nc1ccc([N+](=O)[O-])cc1Cl	i	-6%
COc1ccc(CNC(=O)Nc2ccc(OC)cc2)cc1	i	-10%
Cc1ccc(OCC(=O)Nc2ccc(C)c(F)c2)c([N+](=O)[O-])n1	i	5%
NC(c1csc(Nc2ncccn2)n1)C1CCCCC1 (stereo not drawn)	-17%	?
CCc1cccc(C)c1NC(=O)c1cc(S(=O)(=O)N(C)Cc2ccccc2)ccc1F	-27%	-17%
CN1C(=O)C(C)(C)c2cc(S(=O)(=O)NCC3CCC(C(=O)NC4CCCCC4)CC3)ccc21 (stereo not drawn)	i	-2%
CN1CCN(NC(=O)c2cccc3ccccc23)CC1	4%	2%
Cc1ccc(CNCc2cccnc2)s1	-20%	-4%
Cc1ccc(NC(=O)NNC(=O)c2cccs2)cc1	-8%	-4%
COc1ccc(-c2csc(C3=C(O)CN(C(C)C)C3=N)n2)cc1OC	?	?
Cc1cc(C(=O)O)cc(S(=O)(=O)Nc2ccccc2C(=O)NC2CC2)c1C	i	-6%
CCOc1ccc(NC(=O)c2ccc(-n3cccn3)nc2)cc1	i	-1%
COc1cc2ccccc2cc1C(=O)OCC(=O)Nc1ccc(Br)cc1	-12%	-8%
CC(Oc1ccc2oc3ccccc3c2c1)C(=O)NC12CC3CC(CC(C3)C1)C2 (stereo not drawn)	-14%	0%
Cc1onc(-c2ccccc2)c1C(=O)N1CCCc2ccccc21	-5%	-2%
O=C(NCc1ccc(Cl)cc1)C(=O)NCC(c1cccnc1)N1CCN(c2ccccc2)CC1 (stereo not drawn)	?	?
C[C@]12CCC3c4ccc(OC(=O)c5ccccc5)cc4CCC3C1CCC2=O (stereo partly drawn)	-7%	0%
CCOC(=O)C1(Cc2cccc(Cl)c2)CCCN(C(=O)c2ccnn2C)C1 (stereo not drawn)	-5%	-14%
CCc1ccc(NC(=O)C2CCCN(S(=O)(=O)c3ccc4[nH]c(=O)ccc4c3)C2)cc1 (stereo not drawn)	?	?
CCCn1c(=C(C#N)C#N)s/c(=C2\C=Cc3ccccc3N2CC)c1=O	nt	-6%
CCOc1cc(C(=S)N2CCCC2)ccc1OCC(=O)Nc1c(C)cc(C)cc1C	-1%	-14%
O=C(NCCCc1ccccc1)c1cccc(NC(=O)C2CCC2)c1	3%	-9%
CCc1ccccc1NC(=O)CCCN1C(=O)C2CC=CCC2C1=O (stereo not drawn)	i	-11%
COc1ccc(-c2cn(-c3ccc(C)cc3)c(S(=O)(=O)CC(=O)Nc3ccc(F)cc3)n2)cc1	-28%	-18%
O=C(Nc1ccc(F)c(Cl)c1)C1CCCN(c2ncnc3onc(-c4ccc(F)cc4)c23)C1 (stereo not drawn)	-15%	-20%

Some of the entries so far, with values under each structure:
The line under a structure holds: VACV mCherry inh | VACV Venus inh
> CCCn1c(=C(C#N)C#N)s/c(=C2\C=Cc3ccccc3N2CC)c1=O
→ nt | -6%
> CCOc1cc(C(=S)N2CCCC2)ccc1OCC(=O)Nc1c(C)cc(C)cc1C
→ -1% | -14%
> O=C(NCCCc1ccccc1)c1cccc(NC(=O)C2CCC2)c1
→ 3% | -9%
> CCc1ccccc1NC(=O)CCCN1C(=O)C2CC=CCC2C1=O (stereo not drawn)
→ i | -11%

(list continues)
SMILES	VACV mCherry inh	VACV Venus inh
Cn1c(=O)n(C)c2cc(NS(=O)(=O)c3ccc(Cl)s3)ccc21	-14%	-18%
C=CCNC(=O)N1C2=NC(C(=O)OC)=C(C(=O)OC)[C@@H]3N(Cc4ccccc4)c4ccccc4[C@]23C[C@H]1C(=O)OC	?	-26%
CCc1nn(CC(=O)N2CCN(c3cccc(Cl)c3)CC2)c(=O)c2cc3sccc3n12	-21%	-1%
COc1ccc(/C=C2/C(=O)NC(=O)N(c3ccc(C)c(C)c3)C2=O)cc1CN1C(=O)c2ccccc2C1=O	i	-1%
CC1CN(C(=O)c2ccc(-c3cccc(C(F)(F)F)c3)o2)CC(C)O1 (stereo not drawn)	-13%	-21%
O=C(CCc1ccc(S(=O)(=O)NCc2ccccc2)cc1)NCC1CCCO1 (stereo not drawn)	i	-4%
CSc1ncc(C(=O)Nc2cc(Cl)ccc2C)c(-c2ccccc2)n1	-8%	-1%
O=C(NCCc1ccccc1)c1c[nH]c2ccc(F)cc2c1=O	22%	10%
CC(=NCCc1ccccc1)C1=C(O)COC1=O	nt	-12%
O=C(NCCCN1CCOCC1)c1ccc2ccccc2c1	0%	-20%
NNc1cccc(C=Cc2ccccc2)cc1=O	i	-2%
CCOc1ccc(NC(=O)CN(C)CC(=O)Nc2ccc(Br)cc2F)cc1OCC	-14%	-11%
O=C(CCN1C(=O)C2C3C=CC(C3)C2C1=O)Nc1ccc2ncccc2c1 (stereo not drawn)	nt	0%
Cc1ccc(CN2C(=NC(=O)CCC(=O)O)SC3CS(=O)(=O)CC32)cc1 (stereo not drawn)	-7%	7%
O=c1c(Cc2c(F)cccc2Cl)c(O)ccn1CCc1ccccn1	-8%	-14%
CCCCN(C(=O)c1[nH]c(C)c(C(=O)OCC)c1C)c1c(N)n(CCCC)c(=O)[nH]c1=O	i	-8%
COC(=O)c1ccc2c(=O)[nH]c(CSc3nnc(C(F)(F)F)n3C)nc2c1	i	1%
Cc1cc([N+](=O)[O-])ccc1NCc1ccc2ccccc2c1	i	-8%
COc1ccc(C(O)C(CC(=O)NCCCOC(C)C)C(=O)NCCCOC(C)C)cc1OC (stereo not drawn)	i	-4%
COC(=O)Cc1n[nH]c(=O)c2ccccc12	i	-9%
COc1cc2nc(N(C)C)c(CNC3CCOC(C)(C)C3)cc2c(OC)c1OC (stereo not drawn)	-4%	13%
CC(C)(C)c1cc(CCC(=O)NNC(=O)c2ccco2)cc(C(C)(C)C)c1O	-20%	-19%
S=c1[nH]nc(NCCc2ccccc2)s1	-9%	-15%
COc1ccc(S(=O)(=O)c2c(Nc3c(C)cccc3C)sc(C(=O)c3ccc4c(c3)OCO4)c2N)cc1	?	?
Cc1cccc(C)c1N1C(=O)CC(Sc2ccccc2N)C1=O (stereo not drawn)	-30%	-11%

Record cards, from the list above. Screens in order: VACV mCherry inh, VACV Venus inh
`COC(=O)c1ccc2c(=O)[nH]c(CSc3nnc(C(F)(F)F)n3C)nc2c1` is listed with i, 1%
`NNc1cccc(C=Cc2ccccc2)cc1=O` is listed with i, -2%

(list continues)
SMILES	VACV mCherry inh	VACV Venus inh
CC1(C)CC2CC(C)(CN2/C=C2/CCCCC2=O)C1 (stereo not drawn)	-13%	-16%
CC(C)CCn1c(S(=O)(=O)O)nc2ccccc21	nt	-5%
COc1ccc(NC(=S)Nc2ccccc2F)c(OC)c1	nt	2%
CCOc1cc(CNCCO)c(Cl)cc1OCC(=O)NCCc1ccccc1	i	-9%
NC(=O)C1CCN(CC(=O)Nc2ccc3c(c2)OCCO3)CC1	-14%	-15%
O=C(OC1CC2CC1[C@H]1CCCCN1C2=O)N1CCCCC1 (stereo partly drawn)	11%	4%
CCC12CN3CC(C)(CN(C1)C3c1c[nH]c3ccc(OC)cc13)C2=O (stereo not drawn)	-10%	-13%
CCCc1[nH]nc2c1C(/C(C)=C/c1ccccc1)C(C#N)=C(N)O2 (stereo not drawn)	-5%	0%
CCN1CCC2(CC1)C(C#N)=C(N)Oc1c2sc2nc(C)cc(C)c12	nt	8%
Cc1cccc(NC(=O)NCCc2c[nH]c3ccccc23)c1	?	?
Cc1ccc(Cc2c(-c3ccc(Br)cc3)nc3ccc(Cl)cn23)cc1	28%	2%
Cc1cccc(C(O)c2ncc(-c3ccccc3F)[nH]2)c1C (stereo not drawn)	28%	-4%
COCCN1C(=O)c2oc3ccccc3c(=O)c2C1c1cccc(O)c1 (stereo not drawn)	-7%	5%
Cc1nc2nc(SCC(=O)O)nn2c(C)c1Cc1c(F)cccc1Cl	-2%&-5%	-10%&-4%
COc1ccc(CNC(=O)Cn2c(=O)nc(-c3ccccc3)c3ccccc32)cc1OC	-6%	-3%
CCC(c1nnnn1Cc1ccco1)N(CCc1ccccc1)Cc1cc2ccc(OC)cc2[nH]c1=O (stereo not drawn)	nt	-13%
CCc1cc2cc3c(cc2nc1SCC(=O)Nc1nnc(C)s1)OCCO3	-10%	-7%
COc1ccc(CCNc2nc3ccccc3n3nnnc23)cc1OC	?	-5%
CCCCN(CC)Cc1ccc(CNC(=S)Nc2c(C)cc(C)cc2C)o1	i	-4%
O=c1c2[nH]c3ccccc3c2ncn1CCC1=CCCCC1	2%	6%
CC(NC(=O)c1ccccc1)c1nnc(SCC(=O)NC2CCCC2)n1C (stereo not drawn)	-19%	-28%
Cc1ccc(S(=O)(=O)N(C)C(=O)NC(=O)NS(=O)(=O)c2ccccc2)cc1	-1%	-13%
O=C(O)c1ccc(CN(Cc2ccccc2)S(=O)(=O)c2ccc(Cl)cc2)cc1	-8%	-6%
Cc1ccc(-n2nc(C)c3c(C)cc(=O)n(CC(=O)Nc4cccc(C)c4C)c32)cc1	-3%	0%
Cc1[nH]c(C)c(S(=O)(=O)Nc2cccc(Cl)c2C)c1C(=O)N1CCCCC1	i	-6%
The list continues.
SMILES	VACV mCherry inh	VACV Venus inh
Cc1ccc(C(=O)NNC(=O)CCN2C(=O)C3CCCCC3C2=O)cc1 (stereo not drawn)	-10%	-14%
CCOC(=O)C1CCCN(S(=O)(=O)c2ccc(N3CCCCS3(=O)=O)cc2)C1 (stereo not drawn)	-7%	-10%
O=C(Nc1cccc(F)c1)Nc1c[nH]c(=O)[nH]c1=O	i	-2%
COc1ccc(CN2CCNC(=O)C2CC(=O)NCCSc2nccn2C)c(OC)c1 (stereo not drawn)	-2%	-7%
CN(C)CCN(Cc1cc2cc3c(cc2[nH]c1=O)OCCO3)C(=S)NCC1CCCO1 (stereo not drawn)	-29%	-24%
COc1ccccc1CNC(=O)CC(c1ccc(OC)c(OC)c1)N1Cc2ccccc2C1=O (stereo not drawn)	-1%	-2%
CCOC(=O)c1c(NC(=O)Cc2cccs2)sc(C)c1C	-2%	-5%
CCN1CCN(Cc2ccc(NC(=O)c3ccc(C)c(NC(=O)C[C@@H]4NC(=O)[C@H](Cc5ccccc5)NC4=O)c3)cc2C(F)(F)F)CC1	i	-17%&-12%
O=C(NCc1ccccc1)C1CCCN1S(=O)(=O)c1ccc(F)cc1 (stereo not drawn)	i	-14%
CO/C([O-])=N/c1c[n+](-c2ccc(C)cc2)no1	nt	-29%
CCCOc1ccc(Oc2nc(-c3ccncc3)nc3ccccc23)cc1	-18%	-9%
COc1cccc(CNC(=O)CCc2nnc3n(CC(C)C)c(=O)c4ccccc4n23)c1	?	-18%
Cc1cccc(NC(=O)CN(C)S(=O)(=O)c2cccs2)c1	-21%	-13%
COc1cccc(OCC(O)CN2CCN(CCO)CC2)c1 (stereo not drawn)	nt	-16%
CCCC(=O)N1CC(=O)Nc2ccc(C)cc2C1c1ccc(F)cc1 (stereo not drawn)	-33%	-10%
COc1ccc(CC(C#N)(CO)c2nc3ccccc3[nH]2)cc1 (stereo not drawn)	?	-29%
CC1(C)CC(=O)c2c(O)cc(OCC(=O)N3CCN(c4ccccc4)CC3)cc2O1	-1%	-2%
CC(C)c1ccc(N(CCc2ccccn2)C(=O)C(C)(C)C)cc1	i[7.34 µM]	-4%[7.34 µM]
O=C(CCC(=O)c1ccccc1)NC1CCCN(Cc2ccccc2F)C1 (stereo not drawn)	-9%	-14%
O=C(Nc1ccccc1)OCCNC(=O)c1ccccc1	nt	-18%
COc1cc2c(=O)n(CCc3ccccc3)c(=O)n(CC(=O)Nc3ccccc3)c2cc1OC	-17%	-20%
CCCC(C)C(=O)OCC(=O)NCc1ccc(OC)c(OC)c1 (stereo not drawn)	2%	0%
COc1ccccc1CNc1nc(C)c(C(=O)N(C)C)s1	-19%	-2%
O=c1[nH]c(=S)[nH]c(O)c1N=Nc1ccc(S(=O)(=O)N2CCc3ccccc32)cc1	?	-1%
COc1cc(C(=O)NC2=NCCS2)cc(OC)c1OC	-8%	7%
Cn1c(NC(=O)c2cccs2)cc(=O)n(C)c1=O	-10%	-8%
O=C(C[n+]1cc(-c2ccc(F)cc2)n2c1CCC2)c1cccs1	i	-16%

A few values from above:
Value of `CC(=NCCc1ccccc1)C1=C(O)COC1=O` under VACV Venus inh: -12%
Value of `CCCn1c(=C(C#N)C#N)s/c(=C2\C=Cc3ccccc3N2CC)c1=O` under VACV Venus inh: -6%
